TRPML1 agonist = qHTS for Agonists of the Human Mucolipin Transient Receptor Potential 1 (TRPML1). activation, % (concentration not given with the values). Mucolipin-1 (Homo sapiens), Q9GZU1. 0.12% of 410,000 active. TRPML1-expressing cells, Ca2+ dye fluorescence, FDSS; host cell line not named in the record; reference of the full effect not given here; in the data active = activation above about 50%; inconclusive = about 30% to 50%; inactive = below about 30%; further: 0% is about no effect; the text of the record puts the active cut at 80%
Target sequence (Q9GZU1 whole entry, looked up): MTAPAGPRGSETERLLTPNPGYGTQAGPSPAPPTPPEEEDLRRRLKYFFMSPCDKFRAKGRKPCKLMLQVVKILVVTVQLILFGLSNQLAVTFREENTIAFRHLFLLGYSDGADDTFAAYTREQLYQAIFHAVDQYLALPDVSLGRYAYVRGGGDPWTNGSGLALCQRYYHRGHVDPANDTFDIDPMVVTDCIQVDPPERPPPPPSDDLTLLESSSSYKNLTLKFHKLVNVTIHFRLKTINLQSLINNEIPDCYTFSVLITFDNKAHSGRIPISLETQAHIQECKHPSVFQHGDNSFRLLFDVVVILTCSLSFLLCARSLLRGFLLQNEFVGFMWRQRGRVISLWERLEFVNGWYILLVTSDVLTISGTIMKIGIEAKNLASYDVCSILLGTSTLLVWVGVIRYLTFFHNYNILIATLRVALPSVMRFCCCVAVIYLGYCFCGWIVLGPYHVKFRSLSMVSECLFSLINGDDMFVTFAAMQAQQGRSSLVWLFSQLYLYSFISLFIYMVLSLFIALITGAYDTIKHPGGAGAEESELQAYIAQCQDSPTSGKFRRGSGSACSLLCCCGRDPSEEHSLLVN
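TRPML1-DL cells, Tet-induced overnight (~16 h, 37 degrees C), loaded 45-90 min at room temperature with Ca8 no-wash calcium dye plus quencher. FDSS fluorescence: 10 s baseline, compound pin-transfer, 110 s agonist read, then EC80 54-4 (4uM final) and 110 s antagonist read.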
Six1-Eya2 blk = qHTS Assay for Inhibitors of the Six1/Eya2 Interaction; 0.56% of 360,000 active; activity change, % (test concentration not listed); Homeobox protein SIX1 (Homo sapiens) + Protein phosphatase EYA2 (Homo sapiens), …; AlphaScreen GST-Six1/His-Eya2 binding, biochemical; active compounds read low; control for the full effect not named in the record; in the data active = activity change below about -65%; inconclusive = about -30% to -65%; inactive = above about -30%; further: on the % scale 0 is the no-effect control and ±100 the full control effect
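Six1/Eya2 binding was read as AlphaScreen signal after compounds were pinned into GST-Six1 plus His-tagged Eya2 (5X stock 250/500 nM) in pH 8.0 Tris/NaCl/TCEP buffer, beads added, then incubated 1 h, 37 C, dark.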
D2 potentiator = Beta-Arrestin HTS for Positive Allosteric Modulators of the Human D2 Dopamine Receptor: Potentiators | D(2) dopamine receptor (Homo sapiens), P14416 | DiscoveRx D2 beta-arrestin cells, luminescence, 90 min; 100% = 57 uM dopamine signal | AID 624464, 2012 | 0.23% of 360,000 active | potentiation, % (test concentration not listed); active = potentiation of 50% or more; inconclusive = 30% to 50%; inactive = 30% or less;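 further: compound concentration not given in the record; tested on top of an EC20 dose of dopamine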
Target sequence (P14416 whole entry, looked up): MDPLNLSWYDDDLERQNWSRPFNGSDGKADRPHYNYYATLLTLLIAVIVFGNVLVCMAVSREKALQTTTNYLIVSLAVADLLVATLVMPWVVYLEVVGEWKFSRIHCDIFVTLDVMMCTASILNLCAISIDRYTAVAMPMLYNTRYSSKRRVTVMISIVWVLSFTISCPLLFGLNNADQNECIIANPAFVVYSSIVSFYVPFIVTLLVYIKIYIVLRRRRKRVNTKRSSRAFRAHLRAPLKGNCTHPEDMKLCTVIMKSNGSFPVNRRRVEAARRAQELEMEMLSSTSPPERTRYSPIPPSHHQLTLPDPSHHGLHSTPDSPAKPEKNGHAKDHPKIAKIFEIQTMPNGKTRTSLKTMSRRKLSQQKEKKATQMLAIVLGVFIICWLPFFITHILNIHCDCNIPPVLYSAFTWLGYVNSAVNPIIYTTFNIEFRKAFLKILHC
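PathHunter beta-arrestin assay in DiscoveRx D2 cells. Compounds were added with an EC20 of dopamine (50 nM final) for 90 min at 37 deg C. Luminescence was read 1 h after detection reagent, with 57 uM dopamine as the EC100 control.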
TRPV1 PAM = HTS Assay for Compounds that Act as Potentiators of the Vanilloid Receptor 1; potentiation, % at 8.33 µM; AID 540277, 2011; 0.02% of 320,000 active; TRPV1-expressing cells, Fluo-8 calcium influx, capsaicin EC20 potentiation; host cell line not named in the record; control for the full effect not named in the record; Transient receptor potential cation channel subfamily V member 1 (Homo sapiens), Q8NER1; active means potentiation above 80%; inconclusive means 30% to 80%; inactive means below 30%; further: 0% is about no effect
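TRPV1-expressing cells were cultured overnight at 35.5C and loaded with Fluo-8 calcium dye for 40 to 90 min at room temperature. After a 10 s baseline, compound was added and calcium influx was read kinetically for 3 min (ex 480/em 520 nm).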
CtBP-E1A inh = qHTS Assay for Inhibitors of the CtBP/E1A Interaction; CtBP / adenovirus E1A interaction (AlphaScreen); 0.49% of 340,000 active; AlphaScreen GST-E1A/His-CtBP binding, 1536-well; active compounds read low; control for the full effect not named in the record; AID 651724, 2012; activity change, % (concentration not given with the values); in the data active means activity change below about -65%; inconclusive means about -30% to -65%; inactive means above about -30%; further: on the % scale 0 is the no-effect control and ±100 the full control effect
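Protein mix (5X: 125 nM each GST-E1A, His-CtBP) was incubated with pinned compound 2 h at 37 deg C in dark, in 50 mM Tris pH 8.0 buffer with 300 mM NaCl. Glutathione donor and nickel acceptor beads followed; AlphaScreen signal read after 1 h.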
TRPML1 blocker = qHTS for Inhibitors of the Human Mucolipin Transient Receptor Potential 1 (TRPML1); TRPML1-inducible cells, Ca2+ dye fluorescence, FDSS; active compounds read low; inhibition of EC80 agonist-evoked calcium signal; AID 624415, 2012; 0.02% of 390,000 active; Mucolipin-1 (Homo sapiens), Q9GZU1; activity change, negative = inhibition, % (test concentration not listed); in the data active means activity change below about -50%; inconclusive means about -30% to -50%; inactive means above about -30%;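 further: stimulus is agonist 54-4 at its EC80 concentration; on the % scale 0 is the no-effect control and ±100 the full control effect; compound concentration not given in the record; the text of the record puts the active cut at -80%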
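TRPML1-DL cells, Tet-induced overnight (~16 h, 37 °C) at 1,500 cells/well, were loaded with Ca8 no-wash dye plus quencher for 45-90 min at room temperature. Compounds were pinned during FDSS kinetic reading; agonist 54-4 at EC80 (4 uM final) then added.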
An asterisk follows results filed as active; ? = inconclusive; . = no result given; & = joins results of further samples. Random draw from the library; 0.95% or so of the library scored in one or more.

1. O=C(COC(=O)c1ccc(F)cc1F)Nc1cccnc1Cl
2. COCCNC(=O)C1CCCN(Cc2ccccc2-c2ccccc2)CC1 (stereo not drawn)
3. CC(=O)Nc1ncc(Cc2cc(Cl)ccc2Cl)s1
4. CCSc1nc2sc3c(c2c(=O)n1CC)CC(C)(C)OC3
5. Cc1ccc(CNC(=O)c2cc(-c3ccccc3C)nn2CC2CC(c3cccnc3)=NO2)cc1 (stereo not drawn)
6. COc1ccc(CCNC(=O)c2cc3c(=O)n4ccccc4nc3n(CCCN3CCOCC3)c2=N)cc1
7. CCOc1ccc(/C(O)=C2/C(=O)C(=O)N(CCN(CC)CC)C2c2cccs2)cc1 (stereo not drawn)
8. COc1ccc(N(CC(O)CN2CCOCC2)S(=O)(=O)c2ccccc2)cc1 (stereo not drawn)
compound no.	1	2	3	4	5	6	7	8
Six1-Eya2 blk	0	0	-2	3	0	-8	-1	11
TRPV1 PAM	2	.	-1	-13	.	-1	4	26
CtBP-E1A inh	5	11	.	0	2	-12	.	4
TRPML1 blocker	0	.	-19	12	39	-1	-1	-3
D2 potentiator	2	-1	-6	-3	-100	-11	-26	0
TRPML1 agonist	0.2	-0.9	0.5	0.1	-0.6	0.4	-0.3	1.0

9. Cc1ccsc1C(=O)OCC(=O)N(Cc1ccccc1)C(C)C
10. CC12c3ccccc3C(c3ccccc31)C1C(=O)N(c3ccncc3)C(=O)C12 (stereo not drawn)
11. CC(C)(C)NC(=O)c1cc(-c2ccc3c(c2)OCO3)nc2ccccc12
12. CN1CCN(C(=O)c2cc3c(ccc4ccccc43)oc2=O)CC1
13. COc1ccc2nc(Nc3nc(-c4ccncc4)cs3)sc2c1
14. CSCC[C@H](NC(=O)N1C[C@H]2C[C@@H](C1)c1cccc(=O)n1C2)C(=O)Nc1ccc(NC(C)=O)cc1
15. CCOc1ccc(N=Nc2c(N)[nH][nH]c2=O)cc1
16. CCc1ccccc1NC(=O)CC(c1ccc(OC)cc1)n1cccc1 (stereo not drawn)
compound no.	9	10	11	12	13	14	15	16
Six1-Eya2 blk	9	-6	13	-1	-10	5	-10	-5
TRPV1 PAM	.	3	-23	-6	7	0	?	-4
CtBP-E1A inh	6	-4	-2	-1	-4	-19	-1	4
TRPML1 blocker	66	24	-2	-1	5	.	-1	12
D2 potentiator	-8	-7	-10	-13	-6	-24	-10	-8
TRPML1 agonist	-0.6	0.7	-0.1	-0.4	-0.9	.	0.6	0.2

17. CN(C)CCC(=O)N1c2ccccc2Sc2ccc(C(F)(F)F)cc21
18. CCOC(=O)C1=C(CC)OC(N)=C(C#N)C1c1ccc(F)cc1F (stereo not drawn)
19. Oc1ccccc1C1SC(c2ccccc2O)SC(c2ccccc2O)S1 (stereo not drawn)
20. CCOC(=O)c1c(C(F)(F)F)nc2ncccn12
21. Cc1ccnc(N2CCC(C(=O)NNC(=O)c3ccccc3C)CC2)n1
22. COc1ccc(/C=N/OCC(=O)Nc2nc3ccccc3s2)cc1OC
23. CC(C)(C)C(=O)Oc1cccc(Nc2ncnc3ccccc23)c1
24. COc1ccc(CNC(=O)COC(=O)CO/N=C(\C)c2ccc3c(c2)OCO3)cc1
compound no.	17	18	19	20	21	22	23	24
Six1-Eya2 blk	-2	-4	2	1	6	-15	0	7
TRPV1 PAM	6	3	.	-1	-6	-8	-16	-21
CtBP-E1A inh	-1	-24	1	-1	6	3	10	8
TRPML1 blocker	8	-5	-11	12	-15	34	13	24
D2 potentiator	-3	-3	-7	11	-11	-8	-1	-4
TRPML1 agonist	0.5	-0.4	0.9	1.1	0.2	1.0	0.8	-0.8

25. COc1ccc(C(=O)N/C(=C\c2cccc3ccccc23)C(=O)NCCc2c[nH]c3ccccc23)cc1OC
26. CN(C)/C=N/C(=S)Nc1ccccc1
27. Cc1ccc(S(=O)(=O)NCC(=O)OC(C(=O)c2ccccc2)c2ccccc2)cc1 (stereo not drawn)
28. CCOC(=O)C1CCN(C(=O)Nc2ccc3c(c2)nc(C)n3C)CC1
29. CC1Sc2ccc(S(=O)(=O)CCC(=O)N(C)Cc3ccccc3)cc2NC1=O (stereo not drawn)
30. Cc1cc(C(=O)CSc2nc(N)cc(N)n2)c(C)n1-c1cccc(F)c1
31. O=C(CSc1nnnn1-c1ccc(F)cc1)NCc1cccs1
32. ON=C(CCc1ccccc1)CCc1ccccc1
compound no.	25	26	27	28	29	30	31	32
Six1-Eya2 blk	-17	7	-14	-1	3	-13	0	-5
TRPV1 PAM	-4	4	-21	-10	0	-4	2	.
CtBP-E1A inh	-5	22	-19	0	0	-7	13	-3
TRPML1 blocker	-13	20	92	4	2	-17	36	-9
D2 potentiator	-5	-4	-1	2	4	0	-11	-6
TRPML1 agonist	0.5	-0.2	-0.6	-0.4	-0.8	1.6	-1.4	0.2

4 entries from above, field by field.
26	CN(C)/C=N/C(=S)Nc1ccccc1
  Six1-Eya2 blk: 7
  TRPV1 PAM: 4
  CtBP-E1A inh: 22
  TRPML1 blocker: 20
  D2 potentiator: -4
  TRPML1 agonist: -0.2

27	Cc1ccc(S(=O)(=O)NCC(=O)OC(C(=O)c2ccccc2)c2ccccc2)cc1 (stereo not drawn)
  Six1-Eya2 blk: -14
  TRPV1 PAM: -21
  CtBP-E1A inh: -19
  TRPML1 blocker: 92
  D2 potentiator: -1
  TRPML1 agonist: -0.6

28	CCOC(=O)C1CCN(C(=O)Nc2ccc3c(c2)nc(C)n3C)CC1
  Six1-Eya2 blk: -1
  TRPV1 PAM: -10
  CtBP-E1A inh: 0
  TRPML1 blocker: 4
  D2 potentiator: 2
  TRPML1 agonist: -0.4

29	CC1Sc2ccc(S(=O)(=O)CCC(=O)N(C)Cc3ccccc3)cc2NC1=O (stereo not drawn)
  Six1-Eya2 blk: 3
  TRPV1 PAM: 0
  CtBP-E1A inh: 0
  TRPML1 blocker: 2
  D2 potentiator: 4
  TRPML1 agonist: -0.8

Returning to the listing with the 3 entries that preceded the break.
30. Cc1cc(C(=O)CSc2nc(N)cc(N)n2)c(C)n1-c1cccc(F)c1
31. O=C(CSc1nnnn1-c1ccc(F)cc1)NCc1cccs1
32. ON=C(CCc1ccccc1)CCc1ccccc1
33. CCCC(=O)OCC1CN(Cc2ccco2)S(=O)(=O)c2c(F)cccc2O1 (stereo not drawn)
34. CN(C(=O)c1ccccc1)C1c2c(ccc3ccccc23)OCC1CO (stereo not drawn)
35. CCC/C(O)=C1\C(=O)CCCC1=NCCc1ccc(OCC)c(OCC)c1
36. COc1ccc(Nc2nc(N)nc(CSc3nnc(N)s3)n2)cc1
37. O=C(O)C1C2C=CC(C2)C1C(=O)OCC1CCCO1 (stereo not drawn)
38. CC1(C(=O)NS(=O)(=O)c2ccc(Cl)s2)CCN1C(=O)C1(c2ccccc2)CCCC1 (stereo not drawn)
39. Cc1ccc(-n2nc3c(c2NC(=O)c2ccco2)CS(=O)(=O)C3)cc1C
40. C=CCNC(=S)N1CCC(C(=O)c2ccc(OC)cc2)CC1
compound no.	30	31	32	33	34	35	36	37	38	39	40
Six1-Eya2 blk	-13	0	-5	1	0	6	-6	4	3	4	-2
TRPV1 PAM	-4	2	.	.	20	-1	5	19	.	-4	-17
CtBP-E1A inh	-7	13	-3	1	.	5	-12	5	0	12	6
TRPML1 blocker	-17	36	-9	17	-14	5	2	5	.	30	4
D2 potentiator	0	-11	-6	-9	-11	-1	-5	2	-1	-8	5
TRPML1 agonist	1.6	-1.4	0.2	-0.4	0.9	1.6	-1.3	0.8	-0.5	0.4	-0.3

41. CCSc1nc2sc3c(c2c(=O)[nH]1)CC(C)(CC)OC3 (stereo not drawn)
42. Cc1ccc(OCc2ccc(C(=O)NN)o2)c([N+](=O)[O-])c1
43. CN(C)CCCN(C(=O)c1ccc([N+](=O)[O-])s1)c1nc2cc3c(cc2s1)OCCO3
44. Cc1ccc(C)c(S(=O)(=O)Nc2ccc3scnc3c2)c1
45. O=C(O)/C=C/C(=O)N1CCN(S(=O)(=O)c2cccc(C(F)(F)F)c2)CC1
46. COc1cccc(CN2CC(C(=O)NCc3ccc(Cl)s3)CCC2=O)c1 (stereo not drawn)
47. COc1ccc(C(=O)NC(=S)Nc2ccccc2N2CCN(S(C)(=O)=O)CC2)cc1OC
48. CCCCCC/C(C=O)=C\c1ccccc1
compound no.	41	42	43	44	45	46	47	48
Six1-Eya2 blk	-1	3	-11	1	-7	0	-3	5
TRPV1 PAM	-3	-2	0	8	-43	1	1	3
CtBP-E1A inh	11	.	-7	3	.	4	-5	6
TRPML1 blocker	22	23	18	46	-7	-2	8	3
D2 potentiator	-13	10	-4	11	?	-1	-9	-4
TRPML1 agonist	1.3	3.2	-0.3	0.7	2.1	-1.0	3.5	0.3

49. CN(c1ccccc1)c1nc(N)c([N+](=O)[O-])c(NCc2ccco2)n1
50. CCOC(=O)Nc1cccc(Cl)c1C
51. COCCCN(C(=O)Nc1ccccc1)C(C)c1ccncc1 (stereo not drawn)
52. CCOC(=O)C1CCCN(C2CC(=O)N(c3ccc(N4C(=O)CC(N5CCCC(C(=O)OCC)C5)C4=O)cc3)C2=O)C1 (stereo not drawn)
53. Cc1ccc(NC(=O)C2CCCN2S(=O)(=O)c2ccc3c(c2)n(C)c(=O)c(=O)n3C)cc1C (stereo not drawn)
54. O=C(NCCC(c1ccccc1)c1ccco1)c1cccs1 (stereo not drawn)
55. COc1ccccc1OCCNC(=O)CCNC(=O)c1ccccc1Cl
56. O=C1Nc2ccc(S(=O)(=O)N3CCCC3)c3ccc(S(=O)(=O)N4CCCC4)c1c23
57. CCN(c1ccccc1)S(=O)(=O)c1ccc(C(=O)Nc2c(C)n(C)n(-c3ccccc3)c2=O)cc1
58. CCOC(=O)CSc1nc(-c2ccc3c(c2)OCO3)ccc1C#N
59. NC(=O)CC[C@H](NC(=O)c1ccc(F)cc1)C(=O)N1CCN(Cc2ccc3c(c2)OCO3)CC1
compound no.	49	50	51	52	53	54	55	56	57	58	59
Six1-Eya2 blk	-26	6	5	-7	2	-5	6	16	-7	5	-6
TRPV1 PAM	9	-4	.	-7	-3	-4	0	17	.	7	.
CtBP-E1A inh	5	12	3	.	3	2	5	2	0	-3	1
TRPML1 blocker	-13	17	6	10	4&3	-2	-12	3	33	-8	24
D2 potentiator	-30	-5	-5	-2	-4	-9	-10	-3	-5	-10	-3
TRPML1 agonist	2.6	4.5	-0.5	0.3	-0.4&-0.9	0.7	-0.3	1.6	2.3	-0.1	0.4

Screening data (PubChem)
